Mtb bLac sens – beta-lactam sensitization of Mtb H37Rv, H37Rv | AID 434955, 2010 | M. tuberculosis H37Rv growth with meropenem, percent inhibition; hits of this screen are not shown here | inhibition, % at 25 µM | 330,000 tested, 0.27% active;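 active = about 74% or more and at least 40 points above the plate without the antibiotic, then above 30% in a dose series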;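 also: growth measured after seven days incubation then overnight dye step; 0% = bacteria only wells and 100% = bacteria with antibiotic; twin plates without the antibiotic show which effects depend on it; some results filed as inactive read as strong as hits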
The depositor's hits bear a star.

SMILES	Mtb bLac sens
Cc1ccc(S(=O)(=O)CCC(=O)OCC(=O)NCCc2ccc(S(N)(=O)=O)cc2)cc1	5.4
O=C(NNC(=O)c1cccc(S(=O)(=O)Nc2ccc(Cl)cc2)c1)c1ccc(=O)[nH]c1	-0.5
CCOc1ccc(S(=O)(=O)N2CN(c3cccc(C(C)=O)c3)c3nc4ccccc4nc32)cc1	3.2
O=C1C=C(c2cc(C(F)(F)F)cc(C(F)(F)F)c2)C[C@@H](c2ccc3c(c2)OCO3)C1	8.0
Cc1cccc(-n2nnnc2SCC(=O)NC2CCCC2)c1	-0.9
O=C(CN1CCN(S(=O)(=O)c2ccccc2)CC1)Nc1ccnn1C1CCCC1	-10.4
CCn1nc(C(=O)Nc2ccc(N3CCOCC3)cc2)c2ccccc2c1=O	6.1
C[C@@H]1CC[C@]2(C(=O)O[C@@H]3O[C@H](CO)[C@@H](O)[C@H](O)[C@H]3O)CC[C@]3(C)C(=CCC4[C@@]5(C)C[C@@H](O)[C@H](O)[C@@](C)(C(=O)O[C@@H]6[C@H](O)C[C@@]7(C)C(CC[C@]8(C)C7CC=C7[C@H]9[C@](C(=O)O[C@@H]%10O[C@H](CO)[C@@H](O)[C@H](O)[C@H]%10O)(CC[C@@H](C)[C@@]9(C)O)CC[C@]78C)[C@@]6(CO)C(=O)O)C5CC[C@]43C)[C@@H]2[C@]1(C)O (stereo not given in full)	-0.6
COc1ccc(NC(=O)CSc2nnc(N)s2)cc1S(=O)(=O)N1CCCCC1	5.1
COc1ccc(C(=O)N2CCN(c3ccc(F)cc3)CC2)cc1S(=O)(=O)NC1CC1	-9.6
O=C(COC(=O)/C=C/c1ccccc1)NC1CCCCC1	4.5
COc1ccccc1NC(=O)N1CCCC1C(=O)NCc1cccs1 (stereo not given)	-4.8
CCOc1ccc(C2=Nn3c(CC)nnc3SC2)cc1	4.3
NS(=O)(=O)c1cc(C(=O)OCC(=O)N2CCc3ccccc3C2)ccc1Cl	-6.5
COc1ccc(-c2nc3ccccc3o2)cc1OC	-1.5
O=C(COC(=O)c1ccc(OC(F)(F)F)cc1)Nc1ncccn1	1.6
Cc1noc(C)c1CSCC(=O)Nc1ccc(C#N)c(Cl)c1	-9.0
COc1cccc(CN(C)C(=O)c2cc(S(=O)(=O)NC3CCCCC3)ccc2C)c1OC	-12.5
Cc1ccc(C)c(C(=O)COC(=O)c2n[nH]c3ccccc23)c1	5.9
c1ccc2c(Nc3ccc(N4CCOCC4)cc3)nc(N3CCOCC3)nc2c1	-1.1
Cc1ccc(C(=O)NNC(=O)c2ccc3c(c2)OCCO3)cc1	7.8
COc1cccc(OCCNc2ccc([N+](=O)[O-])cn2)c1	7.7
CCN(CC)c1ccc(C(=O)OCC(=O)Nc2cc(C)on2)cc1	6.0
O=C(COC(=O)c1ccc2ncsc2c1)Nc1cc([N+](=O)[O-])ccc1Cl	-5.8

Entries above that have an aryl thioether with sulfur outside any ring (two):
SMILES	Mtb bLac sens
Cc1cccc(-n2nnnc2SCC(=O)NC2CCCC2)c1	-0.9
COc1ccc(NC(=O)CSc2nnc(N)s2)cc1S(=O)(=O)N1CCCCC1	5.1

Some of the entries so far, as a markdown table:
| Molecule | Mtb bLac sens |
| --- | --- |
| COc1cccc(CN(C)C(=O)c2cc(S(=O)(=O)NC3CCCCC3)ccc2C)c1OC | -12.5 |
| Cc1ccc(C)c(C(=O)COC(=O)c2n[nH]c3ccccc23)c1 | 5.9 |
| c1ccc2c(Nc3ccc(N4CCOCC4)cc3)nc(N3CCOCC3)nc2c1 | -1.1 |
| Cc1ccc(C(=O)NNC(=O)c2ccc3c(c2)OCCO3)cc1 | 7.8 |
| COc1cccc(OCCNc2ccc([N+](=O)[O-])cn2)c1 | 7.7 |
| CCN(CC)c1ccc(C(=O)OCC(=O)Nc2cc(C)on2)cc1 | 6.0 |
| O=C(COC(=O)c1ccc2ncsc2c1)Nc1cc([N+](=O)[O-])ccc1Cl | -5.8 |

Going on with the list:
SMILES	Mtb bLac sens
COC(=O)c1c(C)[nH]c(C(=O)COC(=O)c2c(C)noc2C)c1C	1.0
Cc1ccc(C)c(-n2ccnc2SCC(=O)c2c(N)n(C3CC3)c(=O)[nH]c2=O)c1	-3.6
Cc1noc(C)c1NC(=O)N(C)C[C@H]1Oc2ccc(NS(=O)(=O)c3cn(C)cn3)cc2C(=O)N([C@H](C)CO)C[C@@H]1C	5.3
Cc1csc(SCC(=O)Nc2cc([N+](=O)[O-])ccc2F)n1	2.0
CCN(CC)C(=O)c1[nH]cnc1C(=O)Nc1cccc(Cl)c1	31.4
COc1ccc(S(N)(=O)=O)cc1C(=O)OCC(=O)NC(C)(C#N)C1CC1 (stereo not given)	-2.6
Cc1nn(CC(=O)N(C)C2(C#N)CCCCC2)c(C)c1[N+](=O)[O-]	-1.7
CNc1snc(C)c1C(=O)OC(C)C(=O)Nc1ccc(F)cc1 (stereo not given)	-5.3
O=S(=O)(Nc1nc2ccccc2nc1N1CCN(CCO)CC1)c1cc(F)ccc1F	-10.4
CCC(=O)N(c1nnc(SCC(=O)Nc2ccc(N3CCOCC3)cc2)s1)C1CC1	-6.3
COC(=O)[C@@H]1C[C@@H](c2ccccc2)[C@H](C)C1(C)C	-17.8
COc1cc(CC(=O)NNC(=O)c2cccs2)cc(OC)c1OC	4.8
O=c1oc2ccc(C#CC3(O)CCCCC3)cc2cc1-n1cc(C2(O)CCCCC2)nn1	-4.4
CCOc1ccc(C(=O)NNC(=O)c2cc(S(=O)(=O)N3CCOCC3)ccc2Cl)cc1	6.5
O=C(Nc1cc(S(=O)(=O)N2CCCCCC2)ccc1OCC(F)(F)F)c1cnccn1	4.4
Cc1ccc(S(=O)(=O)CCC(=O)OCc2cc(=O)oc3cc(C)ccc23)cc1	-5.6
Cc1ccc(S(=O)(=O)N2CCN(C(=O)COC(=O)c3cncc(Br)c3)CC2)c(C)c1	0.5
CC(C)[C@H](NC(=O)c1ccco1)C(=O)OCC(=O)N(C)c1ccccc1	-1.9
O=C(Cc1cccc(C(F)(F)F)c1)Nc1ccc(S(=O)(=O)N2CCCC2)cc1	-5.9
O=C1NCCOC(=O)[C@H](Cc2ccc(F)cc2)CC/C=C/C[C@@H]1CC(=O)N(CCO)Cc1ccccc1	-11.3
CCCCC/C=C\C/C=C\C/C=C\C/C=C\CCCC(=O)O	9.2
C=CCn1c(SCC(=O)N2CC(C)OC(C)C2)nnc1-c1ccncc1 (stereo not given)	-8.3
O=C1/C(=C/c2ccccc2)C[C@@]2(O)[C@H]3Cc4ccc(O)c5c4[C@@]2(CCN3CC2CC2)C1O5 (stereo not given in full)	4.2
CCc1ccc(-c2nc(SCC(=O)c3c(N)n(C4CC4)c(=O)[nH]c3=O)n[nH]2)cc1	1.9
CCN(CCn1cccn1)C(=O)C1CCC(=O)N(CCN2CCOCC2)C1 (stereo not given)	0.3
COc1cccc(NC(=O)CN(C)C(=O)[C@@H]2CCCN2C(=O)c2cccs2)c1	-3.2
NC(=O)c1cc([N+](=O)[O-])ccc1NCc1cnccn1	-10.7
CCN(CC)S(=O)(=O)c1ccc(N2CC(C(=O)NCc3ccc4c(c3)OCO4)CC2=O)cc1 (stereo not given)	-4.4
C#CCOCCOCCOCCNc1nc(N2CCN(C(=O)[C@H](CCCCN)n3cc([C@@H](N)[C@H](C)CC)nn3)CC2)nc(N2CCN(C(=O)[C@H](CCC(=O)O)n3cc([C@@H](N)CCCCN)nn3)CC2)n1	0.7
Nc1c(N(Cc2ccccc2)C(=O)CCc2ccccc2)c(=O)[nH]c(=O)n1Cc1ccccc1	-12.1
Cc1ccc(NC(=O)COC(=O)c2ccc3c(c2)OCCO3)cc1	-6.0
COC(=O)C1=C(c2cccc(OCc3ccccc3)c2)C[C@@H]2CC[C@H]1N2C(=O)NCc1ccc(C(F)(F)F)cc1	-7.7
O=S(=O)(c1ccc(F)cc1)N1CCN(Cc2nnc(-c3ccccc3)o2)CC1	-4.5
NC[C@H](O)c1ccc(O)c(O)c1	3.2
O=C(NNC(=O)c1ccccc1Br)c1cnccn1	-0.2
COc1ccc(C(=O)N(C)Cc2nc3ccccc3c(=O)[nH]2)cc1S(=O)(=O)N1CCCC1	-5.0
O=C(COC(=O)c1ccc(O)cc1O)NC12CC3CC(CC(C3)C1)C2	19.2
CC(C)(C)c1ccc(C(=O)N2CCN(C(=O)c3cccs3)CC2)cc1	-0.1
CC(C(=O)Nc1ccc(Cl)cc1Cl)N1C(=O)NC2(CCCCCCC2)C1=O (stereo not given)	-2.3
O=C(CCNC(=O)c1ccco1)NCc1ccc(C(=O)O)cc1	-9.3
Cc1ccc(S(=O)(=O)NC(=O)C2CCCCC2)cc1	-0.7
O=C(Nc1ccc(S(=O)(=O)N2CCCCC2)cc1)c1ccc(=O)[nH]c1	-6.8
O=C1NC(=O)C2(Cc3cc([N+](=O)[O-])ccc3N3CCN(C(=O)c4ccccc4)CC32)C(=O)N1 (stereo not given)	-9.4
CCCc1cc(=O)[nH]c(SCC(=O)NCCN2C(=O)CSC2=O)n1	-2.7
O=C(CCN1C(=O)c2cccc([N+](=O)[O-])c2C1=O)NC1CCCCCC1	57.2
COc1ccc(S(=O)(=O)N2CCOCC2)cc1NC(=O)CCCOc1ccccc1	-3.2
COc1ccc(C(=O)C(C)OC(=O)CNC(=O)C2CCCCC2)cc1 (stereo not given)	2.5
COc1cc([C@@H]2CC=C(C(=O)O)[C@H](c3ccc(C)cc3)N2S(=O)(=O)c2ccc(C)cc2)cc(OC)c1OC	4.6
COc1ccc(NC(=O)CN(C)CC(=O)c2c(C)[nH]c3ccccc23)cc1	2.7
CC(C)C[C@H](CO)N(Cc1ccccc1)S(=O)(=O)N(Cc1ccccc1)[C@@H](CO)CC(C)C	5.1
Cc1ccc(S(=O)(=O)N2CCOCC2)cc1NC(=O)CNCc1ccc(Cl)cc1Cl	9.1
CCN(CC(=O)Nc1ccccc1OC)C(=O)CC1CCCC1	3.2
COC(=O)C1=C(c2c(C)noc2C)C[C@@H]2CC[C@H]1N2C(=O)N1CCC(O)CC1	2.3
CC1CCN(C(=O)c2ccc(N3CCOCC3)c([N+](=O)[O-])c2)CC1	-2.1
Oc1cccc(Nc2ccccc2)c1	79.3
O=C(NCCN1CCOCC1)c1ccc(Cl)c(S(=O)(=O)NCc2ccccc2)c1	-0.7
Cc1noc(C)c1C(=O)OC(C)C(=O)Nc1ccc(C(N)=O)cc1 (stereo not given)	-1.7
O=C(COC(=O)CCNS(=O)(=O)c1ccccc1)NC(=O)Cc1ccccc1	-2.6
CCOC(=O)c1sc(NC(=O)CN2C(=O)C3CC=CCC3C2=O)nc1C (stereo not given)	-1.9
CC(=O)c1cccc(NC(=O)CN2CCN(S(=O)(=O)/C=C/c3ccccc3)CC2)c1	-5.1
Following part.
SMILES	Mtb bLac sens
COc1ccc(NC(=O)Nc2ccc3c(c2)C(=O)N([C@@H](C)CO)C[C@@H](C)[C@@H](CN(C)CC2CCCCC2)O3)cc1	-2.8
O=C(NN=Cc1ccccc1OC(F)F)c1ccc(NS(=O)(=O)c2cccs2)cc1	9.9
COc1cc(-c2c(-c3ccsc3)sc3ccccc23)cc(OC)c1OC	7.6
COc1cccc(CN(C)C(=O)C2CSC3(C)CCC(=O)N23)c1OC (stereo not given)	-12.8
COc1ccc(OCc2nnc(SCC(=O)NCC3CCCO3)n2N)cc1 (stereo not given)	4.8
O=C(NCC1CCCO1)c1ccccc1NS(=O)(=O)c1cc([N+](=O)[O-])ccc1Cl (stereo not given)	4.6
COc1ccc(N2CCN(C(=O)c3ccc(S(=O)(=O)NCc4ccco4)cc3)CC2)cc1	-2.0
CCSc1ccc([C@@H]2[C@@H]3C(=O)N(C)C(=O)[C@@H]3[C@]3(C(=O)OC)CCCCN23)cc1OC	1.0
COc1cc2c(CCNC(C)=O)c[nH]c2cc1Cl	-3.3
O=C(COC(=O)C1(c2ccc(F)cc2)CCCC1)N1CCNC1=O	4.8
Cc1noc(C)c1C(=O)Nc1cccc2ncccc12	-0.5
CC(=O)c1c(C)[nH]c(C(=O)OCC(=O)N2CCN(S(=O)(=O)c3ccc(C)cc3)CC2)c1C	0.4
O=C(CCNC(=O)c1ccccc1)NCCCc1ccccc1	1.6
COc1ccccc1C(=O)NC(=O)CSc1nnc2ccccn12	-5.8
Cc1ccc(N2CC(C(=O)OCC(=O)Nc3ccccc3C)CC2=O)cc1 (stereo not given)	-0.9
O=C(CN1C(=O)NC2(CCOc3ccccc32)C1=O)N1CCCCC1 (stereo not given)	-4.4
COc1ccc(NC(=O)COC(=O)c2ccc(N3CCCC3=O)cc2)cc1	-8.3
NC(=O)C1CCCN(C(=O)c2cccc(S(=O)(=O)N(Cc3ccccc3)c3ccccc3)c2)C1 (stereo not given)	1.3
O=C(COC(=O)c1ccc(O)cc1)Nc1ccc2c(c1)OCO2	4.9
Cc1ccc(CNC(=O)c2ccc(N3CCC4(CC3)CC(c3cccc(Br)c3)=NO4)c(NC(=O)c3cccc(C)c3)c2)cc1	-5.3
C[C@H](CO)N1C[C@H](C)[C@@H](CN(C)Cc2ccncc2)Oc2c(NS(=O)(=O)c3ccccc3)cccc2C1=O	-6.7
CC1(C)CC(NC(=O)c2ccc(Br)o2)CC(C)(C)N1	-7.8
O=C(Nc1cc(-c2ccccc2)nn1C1CCCCC1)c1ccc(Cl)cc1	7.9
C[C@H](CO)N1C[C@H](C)[C@@H](CN(C)Cc2ccc3c(c2)OCO3)Oc2c(NS(C)(=O)=O)cccc2C1=O	-9.7
CN(CC(=O)Nc1ccc(Cl)c(S(=O)(=O)N2CCOCC2)c1)C(=O)c1ccc(C#N)cc1	-2.5
COc1ccc(NC(=O)CSc2nc3ccccc3c(=O)[nH]2)cc1S(N)(=O)=O	-7.0
CCOc1ccc(NS(=O)(=O)c2c(C)nc3sc(CC)nn3c2=O)cc1	-3.7
CN1CCC(N(C)C(=O)c2cc(-c3ccc(F)cc3)nc3ccccc23)CC1	-0.4
COc1cc2cnc(-c3ccccc3)c(-c3cccc(C(F)(F)F)c3)c2cc1OC	99.2
CCOc1ccc(CC(=O)NC2CC(C)(C)N(C)C(C)(C)C2)cc1OCC	-6.4

This is a subset; the hit share may differ from the screen's.
